Compound activity (PubChem BioAssay)
FPR binder – ligands of human FPR, also counter-screen for FPRL1 ligands; P21462; FPR-expressing cells, fluorescent ligand binding, flow cytometry; inhibition, %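 (tested at 6.7 µM)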; hit rate 0.74% among 24,000; AID 440;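 note: 0% = buffer wells and 100% = receptor blocker peptide wells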
Target sequence (P21462 whole entry, looked up): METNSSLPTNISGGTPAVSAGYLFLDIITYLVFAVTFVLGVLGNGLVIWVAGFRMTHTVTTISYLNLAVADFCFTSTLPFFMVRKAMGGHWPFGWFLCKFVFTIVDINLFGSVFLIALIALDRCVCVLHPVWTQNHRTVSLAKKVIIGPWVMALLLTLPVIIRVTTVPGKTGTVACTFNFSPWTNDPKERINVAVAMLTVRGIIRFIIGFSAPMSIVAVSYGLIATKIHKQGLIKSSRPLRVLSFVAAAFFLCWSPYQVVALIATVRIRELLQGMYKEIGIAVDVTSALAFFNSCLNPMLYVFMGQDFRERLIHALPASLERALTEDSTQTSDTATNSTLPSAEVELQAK
VCAM-1 down – inhibitors of TNFa-induced VCAM-1 surface display, cell-based, plate reader, pooled HUVEC, TNFa stimulus (AID 454); HUVEC TNFa-induced VCAM-1 surface immunofluorescence, plate reader; numbers were filed only for top-ranked candidate wells; inhibition, % at 5 µM; hit rate 0.2% among 10,000;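 active = compound among top-ranked inhibitors of TNF-induced VCAM-1 adhesion protein staining, with the hit upheld by image or statistical review; inactive = the rest, including hits rejected on review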;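 note: 0% = TNFa with vehicle and 100% = cells without TNFa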
VCAM-1 up imaging – boosters of cytokine-driven VCAM-1 levels – imaging, high-content imaging, pooled HUVEC, TNFa stimulus (AID 457); Pooled HUVEC, TNFa-induced VCAM-1 immunofluorescence imaging; hits of this screen are not shown here; calls only; hit rate 0.2% among 10,000;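 active = a top-ranked rise in VCAM-1 staining upheld on image or statistical review; inactive = the rest, including candidates rejected on review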;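 note: compounds tested at 5 µM in the well; cells exposed to compound for 24 hours before fixing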
FPRL1 binder – ligands of human FPRL1, also counter-screen for FPR ligands. P25090. FPRL1-expressing cells, fluorescent ligand binding inhibition, flow cytometry. inhibition, %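 (tested at 6.7 µM)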. hit rate 0.3% among 24,000. AID 441;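 note: 0% = buffer alone and 100% = receptor blocker peptide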
Target sequence (P25090 whole entry, looked up): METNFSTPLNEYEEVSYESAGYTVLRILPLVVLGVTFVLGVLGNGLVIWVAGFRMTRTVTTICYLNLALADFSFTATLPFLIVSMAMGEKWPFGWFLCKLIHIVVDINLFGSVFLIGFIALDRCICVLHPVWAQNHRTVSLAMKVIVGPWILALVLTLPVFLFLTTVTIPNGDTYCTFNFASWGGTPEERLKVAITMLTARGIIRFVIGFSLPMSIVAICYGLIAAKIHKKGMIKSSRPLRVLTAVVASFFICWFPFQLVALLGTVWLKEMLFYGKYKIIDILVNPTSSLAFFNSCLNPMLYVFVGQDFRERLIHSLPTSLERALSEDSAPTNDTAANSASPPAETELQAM
VCAM-1 down imaging – inhibitors of TNFa-induced VCAM-1 surface display, imaging, high-content imaging, pooled HUVEC, TNFa stimulus (AID 456); HUVEC TNFa-induced VCAM-1 surface expression, immunofluorescence imaging; numbers were filed only for top-ranked candidate wells; inhibition, % at 5 µM, or IC50 in µM where a hit was titrated; hit rate 0.2% among 10,000;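 active = top tenth filtered wells with inhibition above zero that passed visual or statistical confirmation; inactive = the rest, including hits rejected on review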;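 note: 0% = stimulated vehicle wells and 100% = unstimulated cells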
Numbers without * were called inactive; i = inactive; . = not tested or not shown.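 Rule for the calls, unless noted: active = mean above 30%; inconclusive = self-fluorescent; inactive = the rest.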 An excerpt; the hit share may differ from the screen's.

SMILES	FPR binder	VCAM-1 down	VCAM-1 up imaging	FPRL1 binder	VCAM-1 down imaging
COc1cc(C2C(C(=O)c3ccc(C)o3)=C(O)C(=O)N2Cc2cccnc2)ccc1O (stereo unspecified)	41*	.	.	28	.
CCOC(=O)CSc1nnnn1-c1cc(OC)c(Cl)cc1OC	-10	.	.	-10	.
O=C(CSc1nnc(Cn2c(=O)sc3ccccc32)n1-c1ccccc1)N1CCOCC1	-5	.	.	-4	.
Cc1noc(C)c1C(=O)OCC(=O)Nc1ccccc1C(=O)NC(C)c1ccccc1 (stereo unspecified)	-1	i	i	-5	i
O=C(CC1NC(=O)NC1=O)NC1(C(=O)NC2CCCCC2)CCCCC1 (stereo unspecified)	-4	.	.	-9	.
Cc1ccccc1-n1nc2c(c1NC(=O)c1ccc(S(=O)(=O)N(C)C)cc1)CSC2	12	.	.	16	.
Clc1ccc(OCCCn2cncn2)cc1Cl	-4	i	i	1	i
Cc1noc(/C=C/c2ccco2)c1S(=O)(=O)N1CCC(C(=O)N(C)Cc2ccccc2)CC1	-2	.	.	-1	.
CCOC(=O)C1=C(C)N=C2SC(CC)C(=O)N2C1c1ccc(OC(C)=O)c(OCC)c1 (stereo unspecified)	10	.	.	2	.
COc1ccc(-n2nc3c(c2NC(=O)c2c(-c4ccccc4Cl)noc2C)CS(=O)(=O)C3)cc1	7	.	.	-1	.
CCOC(=O)c1c(C)c(C(=O)NC(C)COC)c(C)n1C (stereo unspecified)	0	.	.	-2	.
COc1ccc(-c2c(=O)n(OCc3ccccn3)c3ccccc3[n+]2[O-])cc1OC	0	i	i	6	i
Cc1nc2ncnn2c(C)c1CCC(=O)Nc1csc(N)n1	-5	.	.	-8	.
O=S(=O)(c1ccc(-c2csc(-c3cccnc3)n2)cc1)N1CCCCC1	-3	i	i	5	i
Cc1ccc2oc(=O)c3cnn(CC(=O)NCCN4CCOCC4)c3c2c1	-5	.	.	3	.
Cc1cc(-c2ccccc2)n2ncc(C#N)c2n1	-3	.	.	-3	.
Nc1nnc(-c2ccccc2)c(-c2ccccc2)n1	-2	i	i	0	i
Cc1ccc(-n2cc(C(C)(C)C)[nH]c2=S)cc1	10	.	.	7	.
CCOC(=O)Cn1c(N2CCOCC2)nc2c1c(=O)[nH]c(=O)n2C	1	i	i	-1	i
O=C1c2ccccc2-c2ccc(C(=O)N3CCOCC3)cc21	-2	i	i	2	i
Cc1ccc(S(=O)(=O)N2CCOCC2)cc1C(=O)Nc1ccc(-c2cn3ccsc3n2)cc1	-1	i	i	1	i
Cc1cc(S(=O)(=O)N2CCN(c3ccccc3C)CC2)ccc1F	2	i	i	0	i
CC1CCN(S(=O)(=O)c2ccc3c(c2)oc(=O)n3CC(=O)NCc2ccc3c(c2)OCO3)CC1	39*	.	.	-4	.
CCOC(=O)N1CCN(C(=O)c2ccc3c(=O)n4c(nc3c2)CCCCC4)CC1	-3	.	.	-4	.
CCOC(=O)N1CCN(C(=O)CSCC(=O)Nc2nc(-c3ccc4c(c3)OCO4)cs2)CC1	5	.	.	1	.
Cc1c(NC2=NC3(CCCCC3)Cc3ccccc32)c(=O)n(-c2ccccc2)n1C	-1	i	i	-4	i
Cc1ccc(C(=O)CSc2nnc(-c3cccs3)n2C)o1	-2	.	.	-3	.
O=C(CCN1CCN(CC(=O)Nc2ccccc2F)CC1)Nc1ccccc1F	-4	.	.	11	.
O=C(c1cc(-c2cccs2)on1)N1CCN(c2ccccc2)CC1	-5	.	.	-3	.
Cc1cc(C(=O)Nc2sc3c(c2C#N)CCC(C(C)(C)C)C3)no1 (stereo unspecified)	1	.	.	-5	.
CCC(CC)C(=O)NCc1ccc2c(c1)cc(C)n2C	-3	.	.	-4	.
CC(C)(C)NS(=O)(=O)c1cccc(S(=O)(=O)c2cccc(S(=O)(=O)NC(C)(C)C)c2)c1	8	.	.	2	.
O=C1[C@@H]2C(c3ccccc3Cl)=NO[C@@H]2C(=O)N1Cc1ccccc1	-12	i	i	0	i
COc1ccc(CCNS(=O)(=O)c2ccc3c(c2)CC(C)N3C(C)=O)cc1OC (stereo unspecified)	2	.	.	-3	.
Cn1c(=O)n(Cc2ccc(Cl)cc2)c(=O)c2c1nc1n2CCN1Cc1ccco1	10	.	.	2	.
CCC(COC(=O)Nc1cccc(C)c1)NC(=O)OCC(C)C (stereo unspecified)	3	.	.	1	.
COC(=O)C1=C(C)OC(N)=C(C#N)C1c1c(C)nn(-c2ccccc2)c1Cl (stereo unspecified)	-7	i	i	2	i
CC(=O)N1CN(CCCn2ccnc2)Cc2c1sc1c2CCCC1	1	.	.	5	.
COc1ccc(C2C(=O)N(C3CCCCC3)CC(=O)N2Cc2ccco2)cc1 (stereo unspecified)	4	i	i	0	i
Cc1ccc(-c2nc3cnccn3c2Nc2ccc3c(c2)OCO3)o1	3	i	i	1	i
Cc1cc(C)n(S(=O)(=O)c2cc(C(=O)O)c(Cl)cc2Cl)n1	6	i	i	2	i
CC(C)NC(=O)c1cc(-c2ccc(Br)cc2)on1	-2	.	.	-1	.
COCCNC(=O)Nc1ccc2c(c1)N(C)C(=O)CS2	1	.	.	0	.
CCc1ccccc1NC(=O)C(C#N)Cc1cccnc1 (stereo unspecified)	25	i	i	-8	i
Cc1onc(-c2ccccc2Cl)c1C(=O)NCC(=O)O	-6	.	.	4	.
Cc1c(NC(=O)C(C)OC(=O)COc2cccc3c2OC(C)(C)C3)c(=O)n(-c2ccccc2)n1C (stereo unspecified)	-10	i	i	-6	i
FC(F)(F)c1nc(N2CCN(c3ccccc3)CC2)nc2c1CCCCC2	-2	.	.	6	.
CC1CC(C)CN(C(=O)CSc2nnc(-c3ccc(Cl)s3)o2)C1 (stereo unspecified)	6	.	.	2	.

Three compounds picked at random from the list so far:
SMILES	FPR binder	VCAM-1 down	VCAM-1 up imaging	FPRL1 binder	VCAM-1 down imaging
COc1ccc(-n2nc3c(c2NC(=O)c2c(-c4ccccc4Cl)noc2C)CS(=O)(=O)C3)cc1	7	.	.	-1	.
CCc1ccccc1NC(=O)C(C#N)Cc1cccnc1 (stereo unspecified)	25	i	i	-8	i
Cc1ccc(C(=O)CSc2nnc(-c3cccs3)n2C)o1	-2	.	.	-3	.

Further entries follow.
SMILES	FPR binder	VCAM-1 down	VCAM-1 up imaging	FPRL1 binder	VCAM-1 down imaging
O=C(NCN1C(=O)C2C3C=CC(C3)C2C1=O)Nc1ccccn1 (stereo unspecified)	0	.	.	-4	.
CN(c1ccccc1C(=O)NCC1CCCO1)S(C)(=O)=O (stereo unspecified)	-5	i	i	1	i
C=CCc1ccc(OCCCCCN2CCOCC2)c(OC)c1	-9	.	.	1	.
Cc1cc(=O)oc2c1ccc1oc(/C(=N/O)c3ccccc3)c(C)c12	3	i	i	-4	i
CCOC(=O)N1CCN(C(=O)CSCC(=O)Nc2nc(-c3ccccc3)cs2)CC1	0	.	.	-4	.
N#Cc1ccccc1Cn1c(=O)n(-c2ccc(CC(=O)NCc3ccco3)cc2)c(=O)c2sccc21	2	.	.	-2	.
COc1ccc(C2C(C(=O)c3cccs3)=C(O)C(=O)N2c2nnc(C)s2)cc1OC (stereo unspecified)	36*	.	.	27	.
Cc1c(C(=O)Nc2cnccn2)oc2ccccc12	0	i	i	-8	i
CCOC(=O)c1nnc(-c2ccccc2)o1	-6	i	i	2	i
CC(=O)N1CCc2cc(S(=O)(=O)NCCC(=O)N3CCN(Cc4ccccc4)CC3)ccc21	5	.	.	4	.
CC1Cc2cc(/C(O)=C3/C(=O)C(=O)N(CC4CCCO4)C3c3ccco3)ccc2O1 (stereo unspecified)	2	.	.	-2	.
CCOc1ccc(S(=O)(=O)N2CCN(c3ccc(OC)cc3)CC2)c2cccnc12	3	.	.	0	.
O=C(NCCN1CCCCC1)c1ccc(=O)oc1	-10	i	i	6	i
Oc1ccccc1-c1nnc(COc2ccc(Cl)cc2Cl)o1	-1	i	i	-2	i
O=C(Nc1cccnc1)c1cnc2ccccc2n1	2	.	.	2	.
Cc1cccc2cc(=O)[nH]c(C)c12	0	.	.	-3	.
Cc1nnc(SCC(=O)NCCN2C(=O)CSC2=O)s1	2	i	i	2	i
Cn1cccc1Cc1nnc(SCC(=O)N2CCN(c3ccccc3)CC2)n1-c1ccc(F)cc1	-4	.	.	-5	.
CCOC(=O)c1c(C)[nH]c(C)c1-c1ccccc1OC	-5	.	.	-1	.
CC(C)CC(NC(=O)C1CCC(C)CC1)C(=O)Nc1cccnc1 (stereo unspecified)	13	.	.	4	.
CCSc1nc2ccccc2n1CC(N)=O	-3	i	i	-3	i
CC(=O)c1cccc(NC(=O)N2CCCC2C(=O)NCc2ccc(C)cc2)c1 (stereo unspecified)	9	i	i	-9	i
CCCCN1C2=NCCCN2c2cc(C)c(C)cc21	-1	.	.	10	.
COc1cc2c(cc1OC)C(c1cc(OC)c(OC)c(OC)c1)NCC2 (stereo unspecified)	2	i	i	6	i

Arranged by molecular weight (high to low): 3 of the compounds above.
SMILES	FPR binder	VCAM-1 down	VCAM-1 up imaging	FPRL1 binder	VCAM-1 down imaging
CC(=O)N1CN(CCCn2ccnc2)Cc2c1sc1c2CCCC1	1	.	.	5	.
Cc1ccc(C(=O)CSc2nnc(-c3cccs3)n2C)o1	-2	.	.	-3	.
O=C(Nc1cccnc1)c1cnc2ccccc2n1	2	.	.	2	.

Next entries
SMILES	FPR binder	VCAM-1 down	VCAM-1 up imaging	FPRL1 binder	VCAM-1 down imaging
COc1cc(/C=N/n2c(C)nnc2C)cc(OC)c1OC	4	i	i	-2	i
COc1ccccc1CNC(=O)CCNC(=O)Cn1cnc2ccccc2c1=O	8	.	.	8	.
CCCCCCn1c(CN2CCCC(C)C2)nc2c1c(=O)n(C)c(=O)n2C (stereo unspecified)	2	i	i	-2	i
CC(C)CNC(=O)c1c(N)n(/N=C/c2ccccn2)c2nc3ccccc3nc12	-4	i	i	-1	i
COc1cc(OC)c(C2C(C#N)=C(N)OC3=C2C(=O)CC(C)(C)C3)cc1OC (stereo unspecified)	-5	i	i	5	i
COc1ccc(CNC(=O)COC(=O)c2n[nH]c3ccccc23)cc1OC	2	i	i	4	i
Nn1c(SCC(=O)Nc2ccc(S(=O)(=O)N3CCCC3)cc2)nnc1C(F)(F)F	-2	i	i	3	i
CCn1c(=O)cc(OCC(=O)Nc2nc(C)cs2)c2ccccc21	-6	i	i	-1	i
COC(=O)c1ccccc1Nc1ccccc1	0	.	.	6	.
Cc1ccc(C)c(NC(=O)CC(NCCCN2CCOCC2)C(=O)O)c1 (stereo unspecified)	-2	i	i	4	i
Cn1c(=O)[nH]c2cc3ccccc3cc21	-4	i	i	2	i
Cc1cc(C)n(S(=O)(=O)Cc2ccccc2)n1	2	i	i	8	i

Single values from the results shown.
FPR binder with Nc1nnc(-c2ccccc2)c(-c2ccccc2)n1 is entered as -2
FPRL1 binder with COc1cc(/C=N/n2c(C)nnc2C)cc(OC)c1OC is entered as -2
FPR binder with CCOC(=O)CSc1nnnn1-c1cc(OC)c(Cl)cc1OC is entered as -10

Continuation:
SMILES	FPR binder	VCAM-1 down	VCAM-1 up imaging	FPRL1 binder	VCAM-1 down imaging
Cc1ccccc1-c1nc(CN2CCC(C(=O)NCCCN3CC(C)CC(C)C3)CC2)c(C)o1 (stereo unspecified)	1	.	.	3	.
COC(=O)C1=C(C)N=C2SCCC(=O)N2C1c1cc(Br)ccc1OC (stereo unspecified)	1	.	.	7	.
CC1(C)CC(=O)C=C(Nc2ccc(OCC(F)(F)C(F)F)cc2)C1	0	i	i	10	i
CN(C)c1nc(N(C)C)nc(N(C)C)n1	52*	i	i	0	i
Cn1cccc1Cc1nnc(SCC(=O)Nc2cccc(F)c2)n1-c1ccc(F)cc1	-2	.	.	-1	.
CC(=O)N1CCN=C1SCc1ccc(Br)cc1	2	i	i	4	i
Cc1cc(Nc2ccccc2Br)n2nc(C)nc2n1	0	.	.	-3	.
CCCCC(=O)NCc1ccc2c(c1)cc(C)n2C	5	.	.	3	.
CCOc1ccc2[nH]c(C)c(CN3CCN(CC)CC3)c(=O)c2c1	-7	.	.	4	.
COC(=O)c1ccc(C(=O)OC)c(NC(=O)c2cnc3n(c2=O)CCS3)c1	11	.	.	4	.
Cc1ccc2c(c1)N(CCC(=O)NCc1ccc3c(c1)OCO3)C(=O)CO2	1	.	.	-8	.
CC1CN(c2c3c(nc4ncnn24)CCCC3)CC(C)O1 (stereo unspecified)	6	i	i	3	i
CCOC(=O)c1[nH]c(C)c(C(=O)Nc2ccc(C)c(Cl)c2)c1C	4	i	i	-8	i
Cc1cc(=O)[nH]c(SCC(=O)Nc2nc3c(s2)CCCC3)n1	1	.	.	2	.
CC(=O)N1CCC(N(CCCOC(C)C)C(=O)Nc2ccc(Cl)cc2)CC1	4	.	.	4	.
Cc1ccc(S(=O)(=O)NCCC(=O)NCc2ccccc2)cc1	-4	.	.	2	.
